GIRK2 act = GIRK2 channel activation; P48051; HEK293-GIRK2 thallium flux, Thallos fluorescence; calls only for hits at 25 µM; 63,000 tested, 0.05% active;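 active means among the strongest 0.2% of first-round signals and kept after retests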;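 further: first round at about 10 µM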
Target sequence (P48051 whole entry, looked up): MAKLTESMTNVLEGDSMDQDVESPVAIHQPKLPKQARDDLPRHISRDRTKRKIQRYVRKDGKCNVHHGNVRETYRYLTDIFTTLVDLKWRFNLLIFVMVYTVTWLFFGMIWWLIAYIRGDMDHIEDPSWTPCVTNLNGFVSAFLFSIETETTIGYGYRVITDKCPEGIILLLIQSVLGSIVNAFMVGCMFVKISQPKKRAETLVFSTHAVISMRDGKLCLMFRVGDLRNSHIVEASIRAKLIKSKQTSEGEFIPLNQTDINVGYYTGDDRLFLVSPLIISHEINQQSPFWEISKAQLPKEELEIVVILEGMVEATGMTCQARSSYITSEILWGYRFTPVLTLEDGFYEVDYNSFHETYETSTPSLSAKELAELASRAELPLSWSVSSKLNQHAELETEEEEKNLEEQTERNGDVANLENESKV
Calls only; i = inactive. These rows are one share of the data (hit frequency here may not be typical).

GIRK2 act,SMILES
i,COCCOC(=O)C1=C(C)NC(=O)NC1c1ccc2c(c1)OCO2 (centres undefined)
i,O=S(=O)(NCCC(O)c1ccoc1)c1ccc(Cl)s1 (centres undefined)
i,CNC(=O)C(=O)NCC1OCCCN1S(=O)(=O)c1ccc(C)cc1 (centres undefined)
i,O=C(NCCC(O)c1ccccc1)C1(c2ccccc2)CCOCC1 (centres undefined)
i,CC(O)CN1CCN(S(=O)(=O)c2ccc(C(F)(F)F)cc2)CC1 (centres undefined)
i,O=C(CN1CCN(Cc2nc3ccccc3[nH]2)CC1)Nc1ccc(F)cc1F
i,O=C(NC1(c2nc(C3CC3)no2)CCCCC1)c1ccc[nH]c1=O
i,COc1cccc(NC(=O)Cn2nc3c4c5c(sc4ncn3c2=O)CCCC5)c1
i,CCOc1ccc(-c2noc(-c3nnn(-c4cc(Cl)ccc4C)c3N)n2)cc1
i,CN1CCN(CCCN2c3ccccc3Sc3ccc(C(F)(F)F)cc32)CC1
i,COC(=O)C(C)Oc1ccc2cc(-c3cc(OC)ccc3OC)c(=O)oc2c1 (centres undefined)
i,C#CC1(OCC(O)CN2CCN(c3cccc(C(F)(F)F)c3)CC2)CCCCC1 (centres undefined)
i,O=C(Cn1nc2c3sc(N4CCCC4)nc3ncn2c1=O)Nc1cccc(Br)c1
i,O=C(c1ccc(Br)o1)N1CCN(c2cc(N3CCOCC3)ncn2)CC1
i,N#C/C(=C\C=C\c1ccccc1)c1nc2ccccc2s1
i,CCCCC[C@H](O)/C=C/[C@H]1C(=O)C[C@H](O)[C@@H]1C/C=C\CCCC(=O)OC
i,N#Cc1ccc2ncsc2c1
i,CN(C)CC[C@@H](c1ccc(Br)cc1)c1ccccn1
i,Cc1cc(NC(=O)CCCSc2ccc(NC(=O)c3ccc(F)cc3)nn2)on1
i,COc1ccc(Oc2c(C(F)(F)F)oc3c4c(ccc3c2=O)OCN(CC2CCCO2)C4)cc1 (centres undefined)
i,O=C(CN1CCc2nc(NC(=O)c3ccoc3)sc2C1)Nc1ccc(F)c(Cl)c1
i,CCOc1ccc(-c2cc3c(N4CCC(C(=O)NCc5ccc(OC)cc5)CC4)nccn3n2)cc1
i,CS(=O)(=O)N1N=C(c2ccc(Cl)cc2)CC1c1ccccc1 (centres undefined)
i,CCS(=O)(=O)N1CCc2nc(NC(=O)NCCOC)sc2C1
i,COc1ccc(C)c2sc(N(CCCn3ccnc3)C(=O)c3ccc(Cl)s3)nc12
i,CC(CCc1ccccc1)NC(=O)c1cc2n(n1)CCCO2 (centres undefined)
i,CC(C)NC(=O)NCC(O)c1ccc2c(c1)CCO2 (centres undefined)
i,Cc1noc(-c2ccc(=O)n(CC(=O)c3ccc4c(c3)OCO4)c2)n1
i,CS(=O)(=O)Nc1cnc(N2CCCC2)nc1
i,COc1ccc2c(=O)c(Oc3ccc(C(=O)NC4CCCC4)cc3)coc2c1
i,Cc1ccc(-c2ccc3nn(CC(=O)Nc4ccc(C(C)C)cc4)c(=O)n3n2)cc1C
i,CC(C)OCCCNc1nc2c([nH]1)c(=O)n(C)c(=O)n2C
i,N#Cc1c(C(F)(F)F)cc(-c2ccco2)nc1SCC(N)=O
i,CC1=C(C(=O)OC2CCCCCC2)C(c2ccc(Cl)c(Cl)c2)NC(=O)N1 (centres undefined)
i,CCOc1ccc(-c2cc(C(=O)Nc3nc4ccc(C)cc4s3)no2)cc1
i,O=C(Nc1ccc(CN2CCN(c3ccccn3)CC2)cc1)c1ccccc1C(F)(F)F
i,COc1ccc(N2CCn3c2nc2c3c(=O)n(CCN3CCOCC3)c(=O)n2C)c(OC)c1
i,Cc1ccc(N2C(=O)N(c3ccccc3Cl)C3CS(=O)(=O)CC32)cc1C (centres undefined)
i,COc1ccc(F)cc1S(=O)(=O)N1CCN(Cc2nc3ccccc3[nH]2)CC1
i,Cc1cn2c3c(=O)n(C)c(=O)n(C)c3nc2n1Cc1ccc(Cl)cc1
i,COc1ccccc1N1CCN(C(=O)CCCn2c(=O)[nH]c3ccccc3c2=O)CC1
i,O=C(Nc1ccc(F)c(F)c1)c1cc(=O)c(OCc2ccc(F)cc2)co1
i,CN1CCN(c2nnc(SCC(=O)N3CCCc4ccccc43)s2)CC1
i,CC(C)(C)NC(=O)Nc1ccc2c(c1)N(S(=O)(=O)c1ccc(F)cc1)CCC2
i,COc1ccc(-c2c(C)nn3c(NN)cc(C)nc23)cc1OC
i,CC(C)CCNC(=O)CSc1ncc(-c2ccc(Br)cc2)o1
i,CCOCC(=O)N1CCC(Oc2ccc(Cl)cn2)CC1
i,Cc1ccc(NC(=O)Cc2csc(Nc3ncccn3)n2)cc1F
i,Cc1cccc(-n2ncc3c(=O)n(CC(=O)N4CCC(Cc5ccccc5)CC4)cnc32)c1C
i,COc1ccc(C2CCN(S(=O)(=O)C3CC3)C2)cc1 (centres undefined)

(more compounds)
GIRK2 act,SMILES
i,COc1ccccc1OCC#CCNC(=O)C(C)(C)C
i,Cc1cc(N(C)C)nc(Nc2ccc(NC(=O)c3ccc4c(c3)OCO4)cc2)n1
i,CSc1cccc(NC(=O)Cn2ccn3nc(-c4ccc(Cl)cc4)cc3c2=O)c1
i,O=C(Cn1nc2nc(Nc3ccc(F)cc3)ccn2c1=O)N1CCOCC1
i,O=C(/C=C/c1ccco1)NCC1(c2cccs2)CCOCC1
i,COc1ccc(CCC(=O)N2CCC(C(=O)Nc3nccs3)CC2)cc1
i,Cc1ccccc1Cn1nnc2c(=O)n(Cc3nc(-c4ccc(OC(C)C)cc4)no3)cnc21
i,COCCn1cnc2c(-c3ccccc3)cn(CC(=O)Nc3cc(F)ccc3C)c2c1=O
i,CCCNc1nc2c(c(=O)[nH]c(=O)n2C)n1CC(O)COc1ccc([N+](=O)[O-])cc1 (centres undefined)
i,O=C(NCCN1CCOCC1)NC(c1ccccc1)c1ccccc1
i,O=C(Nc1nc2ccc(Cl)cc2s1)c1cc(-c2ccccc2)on1
i,CCOc1cc(C(=O)Nc2ccc3c(c2)CCC(=O)N3Cc2ccccc2)cc(OCC)c1OCC
i,O=C(NCCCn1ccnc1-c1ccccc1)C(=O)Nc1ccc2c(c1)OCO2
i,O=C(Cn1ccc2ccccc21)N1CCC(Oc2ncccc2Cl)CC1
i,CCOC(=O)c1sc2ccccc2c1S(=O)(=O)Nc1ccc(C)cc1
i,COCCN(Cc1ccoc1)C(=O)Nc1ccc(C)c(C)c1
i,Cc1ccc(C)c(N2CCN(C(=O)c3cc(C4CC4)on3)CC2)c1
i,O=C(Cc1csc(-n2cccc2)n1)N1CCC(c2nc3ccccc3[nH]2)CC1
i,CCOC(=O)c1oc2cc(OC)ccc2c(=O)c1-c1ccccc1OC
i,Cc1noc(-c2ccc(NC(=O)c3nc4ccccc4s3)cc2)n1
i,CCc1ccc(N2C(=O)C3N=NN(CC(=O)Nc4ccc(F)c(Cl)c4)C3C2=O)cc1 (centres undefined)
i,Cn1cc(C2=C(c3cccc(OC[C@H](O)CO)c3)C(=O)NC2=O)c2ccccc21
i,Cc1onc(-c2ccccc2Cl)c1C(=O)N1CCC(Oc2cnccn2)CC1
i,CCCOc1ccc(/C=C/C(=O)Nc2ccc(OC)c(Cl)c2)cc1
i,CC(=O)N1CCc2c(sc(NC(=O)c3cc4ccccc4o3)c2-c2nc3ccccc3s2)C1

A draw from above in order of number of heavy atoms, falling:
GIRK2 act,SMILES
i,COCCn1cnc2c(-c3ccccc3)cn(CC(=O)Nc3cc(F)ccc3C)c2c1=O
i,COc1ccc(C)c2sc(N(CCCn3ccnc3)C(=O)c3ccc(Cl)s3)nc12
i,N#Cc1ccc2ncsc2c1

Remaining list, next part.
GIRK2 act,SMILES
i,COC(=O)N1CCc2ccccc2C1C(=O)Nc1ccc(S(C)(=O)=O)cc1 (centres undefined)
i,O=C1C(=O)N(c2ccccn2)C(c2ccccc2Cl)C1=C(O)c1ccc(Cl)cc1 (centres undefined)
i,Cc1cc(C)c2sc(N3CCN(C(=O)NC4CCCC4)CC3)nc2c1
i,COc1ccc(/C=C/c2nc(C#N)c(N3CCN(C(=O)c4cccs4)CC3)o2)cc1
i,CS(=O)(=O)N1CCC(Oc2ncccc2Cl)CC1
i,CC(C)c1nccn1CC1CCN(S(=O)(=O)c2ccc(OC(F)(F)F)cc2)CC1
i,COc1ccccc1Oc1c(C)nc(N)nc1-c1ccc(OCc2ccccc2F)cc1O
i,O=C(NCc1ccc(F)cc1)C(=O)Nc1ccc(C(F)(F)F)cc1
i,CCCCCCCC/C=C\CCCCCCCC(=O)OC[C@@H](O)COP(=O)(O)O
i,CCc1ccc(N2C(=O)C3N=NN(CC(=O)Nc4ccccc4Cl)C3C2=O)cc1 (centres undefined)
i,COc1ccc(NC(=O)CSc2nccnc2N2CCN(c3ccccc3)CC2)cc1Cl
i,COc1ccc(CC2S/C(=C(/C#N)C(=O)Nc3ccc(Cl)cc3)N(c3ccccc3)C2=O)cc1 (centres undefined)
i,CSc1ccc(CNC(=O)COc2cc(C)nc(N3CCCC3)n2)cc1
i,CCCN(CCC)C(=O)Cn1c(C2CC(=O)N(Cc3ccccc3)C2)nc2ccccc21 (centres undefined)
i,CCOC(=O)COc1ccc(N2CCn3c2nc2c3c(=O)n(C)c(=O)n2C)cc1
i,COc1ccc(-c2ccc(=O)n(CCNS(=O)(=O)c3cccc(Cl)c3)n2)cc1
i,CC(=O)Cn1c(=O)c2c(nc3n(C4CCCCC4)c(C)c(C)n23)n(C)c1=O
i,COc1ccc(OC)c(NC(=O)c2c[nH]c3ccccc3c2=O)c1
i,CC(=O)c1c(Cl)c(Cl)cc2c1OCCO2
i,COc1cccc(NC(=O)NCC2COC3(CCCC3)O2)c1OC (centres undefined)
i,Cc1ccc(-n2cc(C(=O)NC3CCN(Cc4ccccc4)CC3)nn2)cc1
i,COC(CNC(=O)c1nnn(-c2ccc(F)cc2)n1)OC
i,COCCCn1cnc2c(-c3ccccc3)cn(CC(=O)Nc3ccc(C(C)=O)cc3)c2c1=O
i,O=C(CSc1nnc2ccc(C(=O)Nc3cccc(F)c3)cn12)Nc1ccc(F)cc1Cl
i,CCOc1ccccc1NC(=O)NCCc1csc(-n2nc(C)cc2C)n1
i,COc1nn(C)cc1C(=O)Nc1nnc(-c2ccc(Cl)s2)o1
i,COc1ccc(S(=O)(=O)NCc2nnnn2-c2ccc(F)c(F)c2)cc1
i,O=C(Nc1ccc2c(c1)CCC(=O)N2Cc1ccccc1)c1ccc2c(c1)OCO2
i,O=C(c1ccsc1)N1CCC(CSCc2ccco2)CC1
i,CCCn1cc(S(=O)(=O)c2ccc(OC)cc2)c(=O)c2cc(F)c(N3CCCC3)cc21
i,O=S(=O)(/C=C/c1ccccc1)N(CC(F)(F)F)C1CCOCC1
i,CCN(C(=O)CSc1nc2ccc(C)cc2[nH]1)c1ccccc1
i,O=C(Cc1ccccc1Cl)N1CCC2(CC1)OCCS2
i,CCCC(=O)Nc1ccc(S(=O)(=O)NCCN2CCN(c3ccccc3F)CC2)cc1
i,Cn1nc(CNC(=O)c2cccs2)cc1-c1ccco1
i,CSc1ccccc1NC(=O)C(=O)NCC1(c2ccc(F)cc2)CC1
i,O=S(=O)(NCCNc1ccc(Nc2cccnc2)nn1)c1ccc2cccc3c2c1CC3
i,Cc1cc(NC(=O)C2CCN(S(=O)(=O)C3CC3)CC2)no1
i,Cc1ccc(NC(=O)c2c(O)c3ccccc3[nH]c2=O)cc1C
i,O=C(c1cnn(-c2ccccc2)n1)N1CCC(Oc2nc3c(Cl)cccc3s2)CC1
i,O=C(CN1CCN(Cc2nc(-c3cccs3)cs2)CC1)NCc1ccco1
i,CC(C)(C)OCC(O)CN1C(C)(C)CC(O)CC1(C)C (centres undefined)
i,COc1cccc(NCC(=O)Nc2ncc(Cc3cccc(Cl)c3)s2)c1
i,Cc1c(C)n2c3c(=O)n(C)c(=O)n(C)c3nc2n1CCCN1CCN(c2ccccc2)CC1
i,Cc1cccc(C)c1NC(=O)Cn1cnc2c(-c3ccc(F)cc3)csc2c1=O
i,CCSc1ccccc1C(=O)NCCc1nc(C2CC2)cc(C(F)(F)F)n1
i,O=C(Nc1ccc(Br)cc1)c1cccc(-n2cnnn2)c1
i,COc1cccc(CNC(=O)Cn2cnc3c(-c4cccc(C)c4)nsc3c2=O)c1
i,CC(=O)Nc1ccc(NC(=O)c2c(C)coc2C)cc1
i,Cc1n[nH]c(C)c1S(=O)(=O)Nc1ccc2c(c1)CCCN2C(=O)c1cccs1

Grouped by structure, the compounds so far with a CF3 group.
GIRK2 act,SMILES
i,CC(O)CN1CCN(S(=O)(=O)c2ccc(C(F)(F)F)cc2)CC1 (centres undefined)
i,CN1CCN(CCCN2c3ccccc3Sc3ccc(C(F)(F)F)cc32)CC1
i,C#CC1(OCC(O)CN2CCN(c3cccc(C(F)(F)F)c3)CC2)CCCCC1 (centres undefined)
i,COc1ccc(Oc2c(C(F)(F)F)oc3c4c(ccc3c2=O)OCN(CC2CCCO2)C4)cc1 (centres undefined)
i,N#Cc1c(C(F)(F)F)cc(-c2ccco2)nc1SCC(N)=O
i,O=C(Nc1ccc(CN2CCN(c3ccccn3)CC2)cc1)c1ccccc1C(F)(F)F
i,CC(C)c1nccn1CC1CCN(S(=O)(=O)c2ccc(OC(F)(F)F)cc2)CC1
i,O=C(NCc1ccc(F)cc1)C(=O)Nc1ccc(C(F)(F)F)cc1
i,O=S(=O)(/C=C/c1ccccc1)N(CC(F)(F)F)C1CCOCC1
i,CCSc1ccccc1C(=O)NCCc1nc(C2CC2)cc(C(F)(F)F)n1

(cont.)
GIRK2 act,SMILES
i,Cc1noc(C2(NC(=O)c3cc(C)[nH]n3)CCCCC2)n1
i,Cc1cc(C)n(-c2ccc(=O)n(CCNS(=O)(=O)c3ccccc3F)n2)n1
i,O=C(COc1ccc(F)cc1)N1CC(c2nc(Cc3ccccc3)no2)C1
i,COCCCn1cnc2c(-c3ccccc3)cn(CC(=O)NCc3ccc(SC)cc3)c2c1=O
